# Ecoli rRNA inh: inhibitors of bacterial rRNA selective over humanized ribosomes | 350,000 tested, 1.6% active | E. coli WT GFP vs humanized-ribosome RFP mutants, fluorescence, 24 h; hits give low values; DMSO median 0, no signal -100 | GFP signal change (wild-type ribosome), % (test concentration not listed);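 active = significant combined selectivity score with lowered wild-type GFP, culture density cut under 30%, mutant RFP and density less affected; inactive = any of these conditions unmet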; note: one replicate is shown; some compounds called inactive have numbers as strong as hits
# Calb FLC: C. albicans growth modulation with fluconazole. C. albicans CaCi-2 (fluconazole-resistant clinical isolate) + fluconazole, Alamar Blue growth, 48 h. 300,000 tested, 0.57% active. growth inhibition, % (test concentration not listed);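 active = most replicates above 75%; inconclusive = exactly half above 75%; inactive = most below 75%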;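 note: all wells also contain fluconazole at 8 µg/ml as a sub-toxic cotreatment; 0% = median of DMSO wells and 100% = median of geldanamycin control wells; wells of about 8 µL received 7.5 nL stock; the first replicate is given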
# T cruzi inh: T. cruzi replication inhibition; T. cruzi beta-gal in NIH3T3, luminescence, 90 h; 300,000 tested, 1.4% active; inhibition, % (concentration not given with the values);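 active = mean inhibition across valid replicates above about 55%, limit read from the data; inconclusive = mean below that limit but half or more replicates reach it; inactive = mean below it, under half of replicates reach it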;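 note: signal also drops with host cell toxicity which is not excluded here; 0% = plate median of DMSO wells and 100% = zero luminescence signal; higher percent means less beta-gal luminescence so fewer parasites; stock transfer was 50 nL into about 50 µL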
# Bfl-1 A1 inh: inhibitors of the anti-apoptotic protein A1, read as caspase activation | AID 2462 | 330,000 tested, 0.066% active | MEF A1-2A-BIM cells, Caspase-Glo 3/7 luminescence, 3 h; percent of clofoctol response, vehicle zero | caspase activation, % (concentration not given with the values);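 active = over half of replicate activation scores above 10%, or exactly half above 10 with the replicate mean above 10; inconclusive = replicate mean below 10 yet half the replicates above 10; inactive = over half of replicates below 10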;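 note: wells of about 30 µL received 50 nL stock; many hits fall short of the cut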
# Beta cell apopt: beta cell apoptosis inhibition. INS-1E cytokine-induced death, ATP luminescence, 48 h; percent of positive-control rescue, neutral wells zero. protection from apoptosis, % (concentration not given with the values). 300,000 tested, 0.8% active. AID 435005;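 active = all replicates at 75% or more, or half of them and the mean; inconclusive = half reach 75% but not the mean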;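 note: 0% = cytokine-treated negative control wells and 100% = positive control rescue; higher means more ATP so stronger rescue from cytokine killing; wells of about 40 µL received 100 nL stock; the first replicate is given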
# RanGTP-Impb inh: inhibitors of RanGTP-importin-beta interaction, primary screen, biochemical, FRET, CFP-Ran, YFP-importin-beta, homogeneous. cell-free CFP-Ran/YFP-importin-beta FRET ratio. AID 2216. inhibition, % (test concentration not listed). 300,000 tested, 1.1% active;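 active = most replicates above 15%; inconclusive = exactly half above 15%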;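 note: 0% = DMSO wells and 100% = Ran loaded with GDP instead of GTP; wells of about 40 µL received 100 nL stock; the first replicate is given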
# Vif A3G: inhibitors of Vif binding to APOBEC3G peptide, primary screen, biochemical, TR-FRET, GST-Vif 1-94, biotin-A3G peptide, dose response retest (AID 1117319). TR-FRET GST-Vif / biotin-A3G peptide binding; higher % means a stronger effect; test concentration not given here; strong numbers were not always called active. inhibition, %; hits with a dose series show IC50 in µM. 260,000 tested, 0.57% active;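 active = above the screen mean plus three standard deviations and confirmed in dose response; inconclusive = results disagree or hit not tested in dose response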;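 note: Vif residues 1-94 fused to GST binding biotinylated APOBEC3G peptide 110-148; 0% = full assay without inhibitor and 100% = GST in place of GST-Vif; retest series ran down from 100 µM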
# MLL AF4-AF9 inh: MLL-AF4/AF9 protein interaction inhibition; P42568; AlphaScreen, biotin-AF4 peptide binding to FLAG-AF9; inhibition, % at 10 µM; 350,000 tested, 0.47% active; AID 651704;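 active = every replicate reaching a set inhibition limit, whatever the replicate mean, cut at about 25% in these data; inconclusive = mean inhibition reaches that limit but some replicates miss it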;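 note: 0% = plate neutral control median and 100% = total signal loss; the record names both 10 and 1 µM as test concentration; the first replicate is given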
# Target sequence (P42568 whole entry, looked up): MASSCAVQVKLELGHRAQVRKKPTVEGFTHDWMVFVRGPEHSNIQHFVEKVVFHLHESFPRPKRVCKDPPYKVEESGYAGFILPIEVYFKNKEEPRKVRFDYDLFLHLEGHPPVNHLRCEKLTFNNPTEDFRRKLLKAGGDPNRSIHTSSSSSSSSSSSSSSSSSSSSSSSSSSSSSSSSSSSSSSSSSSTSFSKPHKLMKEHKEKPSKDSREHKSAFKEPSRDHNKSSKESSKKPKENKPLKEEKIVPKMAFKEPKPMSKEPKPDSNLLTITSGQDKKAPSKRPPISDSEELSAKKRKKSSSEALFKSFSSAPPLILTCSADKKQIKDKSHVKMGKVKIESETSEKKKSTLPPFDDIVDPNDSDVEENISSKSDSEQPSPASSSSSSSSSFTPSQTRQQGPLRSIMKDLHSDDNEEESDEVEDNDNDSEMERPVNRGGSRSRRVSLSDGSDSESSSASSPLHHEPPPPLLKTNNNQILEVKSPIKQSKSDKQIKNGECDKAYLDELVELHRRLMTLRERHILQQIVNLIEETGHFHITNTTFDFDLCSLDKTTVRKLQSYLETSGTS
# Ecoli rRNA inh OD600: second read-out of Ecoli rRNA inh, no call of its own (marks repeat the call); OD600 change, %; measured here: OD600 growth;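 optical density of the mix in the first replicate; 0 = DMSO median and -100 = no signal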
# Ecoli rRNA inh RFP: further read-out of Ecoli rRNA inh, marked with its call; RFP signal change, %; measured here: RFP humanized mutant strains;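 first replicate; 0 = DMSO median and -100 = no signal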
# Active calls of the source: *; ? = inconclusive; · = no result given. An excerpt. The share of hits here may be higher or lower than overall.
SMILES	Ecoli rRNA inh	Ecoli rRNA inh OD600	Ecoli rRNA inh RFP	Calb FLC	T cruzi inh	Bfl-1 A1 inh	Beta cell apopt	RanGTP-Impb inh	Vif A3G	MLL AF4-AF9 inh
COc1ccc(CCN2CC(C(=O)NCCc3cccnc3)CCC2=O)cc1 (centres undefined)	4	10	-0.7	12	4	-0.1	-4	3.6	·	-1.5
CCc1nnc2n1N=C(c1ccc(Cl)cc1)CS2	-3	-2	0.9	6	-11	0.8	5	6.1	0%	-5.7
Cc1cc(C)n2nc(SCC(=O)Nc3ccc(F)c(F)c3F)nc2n1	2	-8	-0.1	·	·	-0.3	-3	·	-2%	0.1
O=S(=O)(c1ccccc1)c1ncc(C(F)(F)F)cc1O	-2	10	-3.2	-9	5	0.8	-3	-2.6	9%	-4.4
O=C(NCCC(=O)N1CCN(C(=O)c2ccco2)CC1)c1ccccc1Cl	11	10	0.3	·	·	0.8	4	·	-7%	-11
CC(C)=CCN1CCN(Cc2cnc(N3CCOCC3)s2)CC1CCO (centres undefined)	10	19	-0.5	-1	-6	1.1	-3	-1.9	-4%	-2.0
Cc1cc(NC(=O)CSc2ncccn2)no1	12	2	-1.5	-13	3	-0.3	·	?	28%	3.7
CC1CCN(CCCn2c(=S)[nH]c3ccccc3c2=O)CC1	·	·	·	-6	-5	0.3	0	1.5	4%	·
Cc1ccnc2nc(C(=O)NC3CCCc4ccccc43)nn12 (centres undefined)	2	1	-0.2	-10	·	-0.2	-2	·	-3%	1.6
CCOC(=O)C1CCN(C(=O)COc2ccc(Cl)cc2C)CC1	·	·	·	15	-4	1.4	-5	-1.9	2%	·
O=C(Cn1ccc(NC(=O)OCc2ccccc2)nc1=O)NCc1ccc2c(c1)OCO2	8	5	2.2	·	·	0.4	0	·	·	1.5
CCOC(=O)c1ccc(NC(=O)CN2C(=O)CSC2=O)cc1	·	·	·	-21	-6	0.5	-2	-2.4	8%	·
CC1CCN(C(=O)c2ccc(S(=O)(=O)NCc3ccco3)cc2)CC1	1	6	-2.6	-2	-4	-0.2	-3	?	·	-2.2
Cc1nn(CC(=O)Nc2cccnc2)c(C)c1[N+](=O)[O-]	2	-2	-4.1	-1	9	-0.2	-1	4.3	-7%	6.5
COc1cc(/C=C/C(=O)O)ccc1OCc1ccc([N+](=O)[O-])cc1	14	19	2.0	3	-3	0.5	-1	-3.7	·	-0.9
COc1ccc(N2CCN(C(=O)COc3ccc4ccccc4c3)CC2)cc1	·	·	·	0	3	0.2	3	0.8	3%	·
COC(=O)[C@H](CC(C)C)NC(=O)Nc1ccc(S(N)(=O)=O)cc1	6	-1	-0.1	0	-12	0.8	-5	0.8	16%	1.8
Cc1nc2ccccc2cc1O	·	·	·	2	-13	-0.6	3	2.3	4%	·
Cc1cc(NC(=O)c2ccc(F)cc2)n(-c2ccccc2)n1	2	4	1.0	-5	-10	1.3	1	4.0	-5%	0.1
COc1ccc(NC(=O)CN(C)C(=O)CN2C(=O)NC3(CCCCC3)C2=O)cc1	-4	0	0.4	·	·	0.4	0	·	5%	-1.9
CCOC(=O)C1=C(C)N=C2SCCC(=O)N2C1c1ccc(OC)cc1 (centres undefined)	·	·	·	-9	-14	0.1	-3	3.4	-2%	·
O=C1CCC(C(=O)Nc2ccc([N+](=O)[O-])cc2)N1 (centres undefined)	17	18	-0.7	·	·	0.6	-2	·	·	-1.3
CC(=O)OCC(=O)[C@H]1CC[C@H]2[C@@H]3CC=C4C[C@@H](O)CC[C@]4(C)[C@H]3CC[C@]12C	-1	1	-2.0	35	-11	-0.2	·	-0.3	-1%	-0.6
Cc1ccc(C(=O)OCC(=O)N2C(C)CCCC2C)cc1S(=O)(=O)N1CCCCC1 (centres undefined)	1	5	-2.4	5	12	0.3	-1	0.7	-8%	-7.1
O=C(Nc1cccc(O)c1)c1ccc(C(F)(F)F)cc1	-11	-1	2.1	-11	-28	-4.8	6	0.0	·	2.4
Cc1ccc(C(=O)COC(=O)c2cccs2)cc1	·	·	·	-3	-1	-6.0	-1	4.6	·	·
Cc1cc(C)n(C(=O)CNC(=O)CCc2ccccc2)n1	·	·	·	5	-12	0.4	-2	-0.9	2%	·
Cc1cc(C(=O)NCCN2C(=O)S/C(=C\c3cccs3)C2=O)ccc1[N+](=O)[O-]	-6	4	-1.3	-4	-3	-3.2	11	-1.2	-5%	-2.0
CCNC(=S)Nc1cccc([N+](=O)[O-])c1	·	·	·	3	-8	-0.3	-11	7.3	6%	·
CCN(CC)CCCNc1cc(C)nc2cc(-c3cccs3)nn12	21	23	7.2	-12	10	-0.1	9	6.0	21%	-2.7
CCOc1ccccc1-n1nnnc1SCC(=O)N1CCCC1=O	13	7	1.3	·	·	0.6	-3	·	·	2.7
COc1ccc(Nc2nc(N)nc(CSC(=S)N3CCC(C)CC3)n2)cc1	·	·	·	0	15	0.3	-6	1.3	·	·
COc1ccc(N(C(=O)Cn2nnc3ccccc32)C2(C(=O)NC3CCCC3)CCCCC2)cc1	·	·	·	2	32	0.6	·	-3.9	0%	·
CC(C)(C)n1nnnc1C(c1cccnc1)N1CCN(c2cccc(C(F)(F)F)c2)CC1 (centres undefined)	·	·	·	-2	49	-0.9	0	1.2	?	·
O=C(CN1CCN(Cc2ccccc2Cl)C1=O)NC1CCCCCC1	·	·	·	2	-6	0.1	·	4.7	-7%	·
C[n+]1cc[nH]c1SCC(=O)c1ccccc1	·	·	·	26	-16	-0.4	-2	-4.1	-4%	·
Cc1c(CC(=O)NCCCCCC(=O)O)c(=O)oc2c(C)c3oc4c(c3cc12)CCCC4	0	-29	-6.2	1	-9	-0.6	-1	3.1	3%	-5.0
Cc1cc2ncc(S(=O)(=O)C(C)(C)C)c(N)n2n1	9	0	2.0	-7	0	0.5	-5	-2.0	2%	-0.9
O=C1CN(C(=O)/C=C/c2ccccc2F)c2ccccc2N1	-24	-39	-1.9	28	-5	-0.1	1	-2.2	·	2.2
COc1cccc(CNC(=O)[C@H](CCSC)NC(=O)N2CCn3c2nc2ccccc23)c1	4	3	1.5	1	13	1.0	4	1.5	·	0.5
O=C(COC(=O)c1ccccc1C(=O)N1CCN(c2ccccc2)CC1)NCc1ccccc1	-6	-13	-4.9	-9	8	-0.4	-3	3.4	1%	-2.0
O=C(CN1C(=O)S/C(=C\c2ccccc2F)C1=O)NC1C=CS(=O)(=O)C1 (centres undefined)	9	4	1.5	2	10	1.0	-6	2.0	·	-1.7
Cc1ccccc1OCC(=O)NC(=S)Nc1ccc(N2CCCC2)cc1	-7	19	-5.3	-8	4	-1.1	-11	-3.4	-10%	0.8
Cn1c(Nc2ccc(F)cc2)nc2ccccc21	11	14	0.8	30	3	0.7	2	1.7	·	-3.0
CC(CN1CCOCC1)OC(=O)c1ccc2c(c1)OCCO2 (centres undefined)	·	·	·	-4	-12	0.4	-6	2.3	7%	·
Cc1ccc(OCC(=O)Nc2ccccc2C(=O)NC2CC2)cc1	4	12	-1.2	·	·	-1.2	-3	·	-5%	-0.2
CC(C)NC(=O)c1c2c(nc3ccccc13)CCCC2	·	·	·	0	4	-0.8	-7	-2.2	·	·
O=C1N[C@@H](Cc2c[nH]c3ccccc23)COC(=O)[C@H](Cc2ccc(F)cc2)C/C=C\C[C@@H]1CC(=O)N(CCO)Cc1ccccc1	9	2	1.8	·	·	1.4	3	·	·	3.9
Cc1csc(NC(=O)c2ccc(Br)s2)n1	-5	-30	9.5	-3	-9	-6.4	-3	-3.0	·	4.4
COc1ccc(N2CCN(S(=O)(=O)c3cc(-c4cc(C)no4)ccc3C(C)C)CC2)cc1	6	2	1.2	7	-19	1.5	0	4.6	·	3.8
COc1ccc(C(=O)C2CCCN(C(=O)c3ccc4cc[nH]c4c3)C2)c(C)c1 (centres undefined)	-13	-21	4.1	-6	9	0.7	7	-3.2	1%	-0.7
CCOC(=O)c1sc(NC(=O)c2ccncc2)c(C#N)c1C	-5	-1	-3.7	-9	-7	-1.1	10	0.1	-6%	3.5
CCOc1ccccc1NC(=O)COC(=O)c1nc2nccc(C)n2n1	12	19	3.0	·	·	0.1	-7	·	2%	-0.9
CC(=O)Nc1ccc(S(=O)(=O)c2cc(O)ccc2O)cc1	7	3	-0.6	-1	-4	-0.2	·	-4.6	13%	-1.0
COc1ccc2c(COC(=O)CCS(=O)(=O)c3ccccc3)cc(=O)oc2c1	·	·	·	5	1	0.1	-1	6.4	-1%	·
Cc1ccc(S(=O)(=O)N2CCN(C(=O)c3ccc(COc4ccccc4)o3)CC2)cc1	-19	-11	-3.6	·	·	-1.1	6	·	3%	-21
CC(C)CNC(=O)CN(C)S(=O)(=O)c1ccc(F)cc1	6	2	5.7	-14	-4	0.1	-7	5.5	1%	1.3
Cc1ccc(C(=O)Nc2ccc3ncccc3c2)cc1	-16*	4.2*	-4.6*	-5	-2	-7.4	1	-3.9	·	2.9
Cc1ccc(S(=O)(=O)CCC(=O)OCC(=O)c2cc(C)n(C)c2C)cc1	-2	-5	7.6	·	·	0.1	-7	·	-1%	1.0
COc1cccc2c3c(c(=O)[nH]c12)CC(C)(C)O3	-2	-3	-0.9	2	-8	-0.4	-2	1.4	·	-1.1

# (continued)
SMILES	Ecoli rRNA inh	Ecoli rRNA inh OD600	Ecoli rRNA inh RFP	Calb FLC	T cruzi inh	Bfl-1 A1 inh	Beta cell apopt	RanGTP-Impb inh	Vif A3G	MLL AF4-AF9 inh
COc1ccc(/C=C/C(=O)OCC(=O)c2ccc[nH]2)cc1	4	5	-4.8	·	·	-0.6	4	·	-8%	0.0
COc1ccc(C(=O)OCCCN(C)C)cc1OC	·	·	·	-1	20	0.0	2	1.2	0%	·
COc1ccc(NC(=O)c2cc(N3C(=O)C4C5CCC(C5)C4C3=O)ccc2Cl)c(OC)c1 (centres undefined)	-18	-17	3.4	44	18	-0.4	5	3.2	4%	12
CCCCN1C(=O)CCC(C(=O)O)C1c1ccc([N+](=O)[O-])cc1 (centres undefined)	10	10	-1.4	4	-3	0.3	1	0.2	-3%	-2.8
O=C(OCc1nnc(-c2ccccc2)o1)c1cc(=O)c2ccccc2o1	·	·	·	24	-19	0.0	-5	?	0%	·
COc1ccccc1N1C(=O)CSC1=NC(=O)c1ccccc1	8	4	17	14	-13	-0.7	-4	0.9	6%	-1.6
Cc1csc(C(C#N)C(=O)c2cc3ccccc3o2)n1 (centres undefined)	-12	-20	1.8	45	50	-6.5	31	?	17%	·
Cc1ccc(S(=O)(=O)N2CC[C@@H]2C(=O)O)cc1	3	4	0.0	-9	-18	-0.1	0	?	·	-0.6
O=C(NCCCN1CCOCC1)c1ccccc1-c1ccccc1	·	·	·	-3	-11	0.7	-1	0.1	11%	·
